LANA-H2A inh – blocks KSHV LANA binding to histone H2A/H2B; Q9QR71; cell-free LANA-H2A/H2B peptide, fluorescence polarization; 320,000 tested, 0.6% active; AID 2629; inhibition, % (concentration not given with the values); in the data active = inhibition mostly above about 10%, no sharp cut-off; inactive = mostly below about 6.7%;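 also: stock transfer was 7.5 nL into about 10 µL; 0% = median of vehicle wells and 100% = median of positive control wells; one replicate is shown; the record names a cut of 25% in any replicate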
FGF22 binding – shifts melting point of recombinant human FGF22. recombinant FGF22 thermal shift, SYPRO orange fluorescence; percent of sucrose octasulfate shift, DMSO zero. calls only at 9.99 µM. 340,000 tested, 1.5% active;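 active = melting point raised past a set limit in the mean and every replicate; three in four hits are not shown here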
ALR H2O2 inh – blocks human ALR sulfhydryl oxidase activity | P55789 | purified ALR, DTT oxidation, H2O2 HRP-luminol luminescence | inhibition, % (concentration not given with the values) | 290,000 tested, 3.8% active;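 active = mean and each replicate at 75% or more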;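 also: stock transfer was 7.5 nL into about 7.5 µL; 0% = neutral wells and 100% = wells with inactivated enzyme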
Target sequence (P55789 whole entry, looked up): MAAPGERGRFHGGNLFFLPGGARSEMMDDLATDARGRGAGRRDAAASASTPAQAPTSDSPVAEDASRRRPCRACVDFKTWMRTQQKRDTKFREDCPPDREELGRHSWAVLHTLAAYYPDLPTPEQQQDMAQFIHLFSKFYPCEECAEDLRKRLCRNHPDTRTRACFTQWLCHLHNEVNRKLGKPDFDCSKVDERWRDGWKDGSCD
UCH37 DUB inh – human UCH37 deubiquitinating enzyme inhibition | 330,000 tested, 0.33% active | inhibition, % (no concentration beside the values) | purified proteasome/UCH37, Ub-AMC cleavage fluorescence | Q9Y5K5 | AID 588478;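 active = mean of two replicates above 20%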;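 also: 0% = compound-free wells with enzyme and 100% = wells lacking proteasome; stock transfer was 100 nL into about 20 µL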
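Material: human UCH37 enzyme supplied as purified proteasome complex / Amount: 0.15 nM proteasome as dispensed / Buffer or medium: pH 7.4 Tris-HCl (50 mM) with ovalbumin, ATP-MgCl2, DTT / Times: preincubation 30 min, reaction 25 min, room temperature / Technique: AMC fluorescence from Ub-AMC cleavage, excitation 355 nm, emission 460 nm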
Beta2AR agonist – activates human beta-2 adrenergic receptor causing internalization; AID 504454; P07550; response, % (concentration not given with the values); 340,000 tested, 0.43% active; Am2.2-beta2AR cells, FAP receptor internalization, flow cytometry; reference of the scale not given here;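 active = response above a set limit, near 3 SD of response in nonfluorescent compounds, cut at about 42% in these data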;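 also: stock transfer was 100 nL into about 11 µL; a reference agonist was the positive control; negative values mostly stem from fluorescent compounds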
Target sequence (P07550 whole entry, looked up): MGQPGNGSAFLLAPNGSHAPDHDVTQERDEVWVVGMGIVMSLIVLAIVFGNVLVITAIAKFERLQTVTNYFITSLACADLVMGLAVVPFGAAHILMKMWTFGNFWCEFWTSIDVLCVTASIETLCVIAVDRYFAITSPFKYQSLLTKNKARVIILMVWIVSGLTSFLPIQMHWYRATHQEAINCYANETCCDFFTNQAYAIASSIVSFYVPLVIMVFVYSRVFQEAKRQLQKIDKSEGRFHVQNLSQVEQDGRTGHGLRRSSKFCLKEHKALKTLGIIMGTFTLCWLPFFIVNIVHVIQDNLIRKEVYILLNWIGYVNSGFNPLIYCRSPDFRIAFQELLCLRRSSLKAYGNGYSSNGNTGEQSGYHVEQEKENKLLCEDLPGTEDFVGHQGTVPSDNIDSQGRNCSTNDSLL
HNF4A DNA FP – change in binding of human HNF4 alpha to DNA; activity change, % at 10 µM; P41235; 360,000 tested, 0.3% active; HNF4a-FITC DNA binding, fluorescence polarization, 1 h; in the data active = activity change above about 30%, passing the limit was not always enough;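 also: controls were the assay level and a saturating level of protein; the project sought stronger binding though the title names inhibitors; some compounds called inactive have numbers as strong as hits; positive values seem to mean higher polarization but the record does not say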
Target sequence (P41235 whole entry, looked up): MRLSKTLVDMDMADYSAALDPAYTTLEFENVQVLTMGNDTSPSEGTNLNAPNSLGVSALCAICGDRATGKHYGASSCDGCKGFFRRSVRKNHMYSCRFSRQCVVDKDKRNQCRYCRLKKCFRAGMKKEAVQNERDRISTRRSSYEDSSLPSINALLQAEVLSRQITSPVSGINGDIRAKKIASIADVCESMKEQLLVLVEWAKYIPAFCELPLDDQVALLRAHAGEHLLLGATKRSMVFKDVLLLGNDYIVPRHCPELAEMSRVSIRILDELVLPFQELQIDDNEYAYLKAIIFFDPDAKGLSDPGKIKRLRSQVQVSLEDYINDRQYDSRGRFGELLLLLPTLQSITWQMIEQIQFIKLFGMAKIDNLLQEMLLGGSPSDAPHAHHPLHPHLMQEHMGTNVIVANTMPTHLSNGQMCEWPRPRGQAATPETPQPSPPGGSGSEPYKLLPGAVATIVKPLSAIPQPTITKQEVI
Ecoli growth – blocks Escherichia coli growth; OD600, 23 h; active compounds read low; 330,000 tested, 0.21% active; OD600 absorbance (no concentration beside the values);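 active = OD600 absorbance below the run mean of sample wells minus 3.6 SD, in any replicate, cut at about 0.56 in these data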;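 also: stock transfer was 300 nL into about 60 µL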
Active calls of the source: *; i = inactive; . = no result given. A portion of the library, so the mix of outcomes need not match the whole.

SMILES	LANA-H2A inh	FGF22 binding	ALR H2O2 inh	UCH37 DUB inh	Beta2AR agonist	HNF4A DNA FP	Ecoli growth
O=C(O)/C=C/C(=O)NCc1ccccc1	3.8	i	0	0.5	-3	-2.5	0.7
CC(=O)c1cccc(N(CC(=O)Nc2cc(C)cc(C)c2)S(C)(=O)=O)c1	-7.0	i	-12	2.3	-2	0.5	0.7
Cc1ccn2cc(CNS(=O)(=O)c3cccs3)nc2c1	-0.3	i	-6	0.5	-1	0.5	0.68
CCCc1c(C(=O)N/N=C/c2sccc2C)nnn1-c1nonc1N	5.5	i	-8	.	-3	-0.9	.
O=C(CSc1nnnn1C1CCCCC1)NCCc1ccccc1	6.2	i	-4	3.0	-7	2.1	0.71
CC1(C)CC(=O)N(CC(=O)NC2CCCC2)c2ccccc2S1(=O)=O	4.7	i	.	4.5	-4	-1.7	0.77
CCN(Cc1ccccc1)C(=O)CS(=O)(=O)c1ccccc1	3.7	i	.	3.2	2	-0.6	0.63
Cc1nnc(SCc2nnc(-c3ccccc3Br)o2)n1-c1ccccc1	-1.9	.	0	2.8	-5	6.0	0.66
CC(=O)Nc1ccc(S(=O)(=O)Nc2ccc(-n3cnnn3)cc2)cc1	-2.8	i	1	-0.2	-4	-3.8	0.72
Cc1c(C(=O)NC2CC2)oc2ccccc12	3.5	i	-2	0.5	0	2.5	0.66
Cc1ccsc1/C=N/NC(=O)C1CC(=O)N(c2ccccc2)C1 (stereo unspecified)	3.5	i	-1	.	-3	1.9	.
C[C@H]1COC(=O)[C@H](NC(=O)OCC2c3ccccc3-c3ccccc32)C/C=C\C[C@H](CC(=O)N(CCO)Cc2ccccc2)C(=O)N1	.	i	0	1.8	6	0.5	0.69
CC1CCC2=NN(C(=O)c3ccco3)C(O)(C(F)(F)F)C2C1 (stereo unspecified)	-1.4	i	1	5.7	0	0.1	0.61
CN1CCN(CC#Cc2ccccc2)CC1CCO (stereo unspecified)	3.8	i	-2	0.5	1	0.4	0.66
COc1ccc(Cl)cc1NC(=S)NC1CCCC1	1.9	i	1	1.9	2	0.5	0.7
CCC(CO)Oc1cc(NCc2ccc(C(=O)O)cc2)c2ncn(C(C)C)c2c1 (stereo unspecified)	-5.8	i	16	0.9	8	-0.5	0.64
CCC(=O)c1cc(F)ccc1OCC(=O)N1CCN(c2ccc(F)cc2)CC1	-1.3	i	21	3.5	1	-2.0	0.67
CCCCN(C)Cc1c(C)[nH]c2ccc(C)cc2c1=O	-4.2	.	2	3.0	0	-3.5	0.7
O=C(/C=C/c1cccc(Cl)c1)NCc1cccs1	-3.0	.	1	1.8	-6	1.6	0.66
Cc1c(C(=O)c2cccc(F)c2)c2ccccn2c1CCC#N	0.5	i	19	12	-21	-4.9	0.69
CCOC(=O)C1CCN(C(=O)c2cc(S(=O)(=O)N3CCOCC3)ccc2C)CC1	-2.7	i	.	3.8	-1	1.2	0.67
CCOc1cc(NC(=S)NCC2CCCO2)c(OCC)cc1NC(=O)c1cccc(F)c1 (stereo unspecified)	-6.0	i	.	2.7	-3	4.2	0.66
CCOC(=O)c1c(C)n(C)c2ccc(OCCN(C)C)cc12	-1.7	.	-3	3.7	4	0.8	0.75
CSc1nc(=S)n(-c2ccccc2)c(C)c1C(C)=O	-0.2	i	-2	7.1	-6	3.9	0.66
CN1C(=O)C2(OCC(C)([N+](=O)[O-])CO2)c2ccccc21 (stereo unspecified)	4.0	.	0	0.6	1	4.6	0.65

Compounds shown so far with a Cl atom, in the order listed:
SMILES	LANA-H2A inh	FGF22 binding	ALR H2O2 inh	UCH37 DUB inh	Beta2AR agonist	HNF4A DNA FP	Ecoli growth
COc1ccc(Cl)cc1NC(=S)NC1CCCC1	1.9	i	1	1.9	2	0.5	0.7
O=C(/C=C/c1cccc(Cl)c1)NCc1cccs1	-3.0	.	1	1.8	-6	1.6	0.66

Next section:
SMILES	LANA-H2A inh	FGF22 binding	ALR H2O2 inh	UCH37 DUB inh	Beta2AR agonist	HNF4A DNA FP	Ecoli growth
CN(CC(=O)Nc1cccc(F)c1)C(=O)c1cccnc1Sc1ccccc1	3.3	i	6	3.6	4	-0.8	0.7
CCOC(=O)N1CCC(NC(=O)C2CCCN(Cc3nc(-c4cccc(Cl)c4)oc3C)C2)CC1 (stereo unspecified)	3.9	i	-3	4.1	-5	-1.0	0.79
Cn1cc(C(=O)NCN2CCCCC2)c2ccccc21	-0.9	.	-7	-4.4	2	-0.3	0.77
O=C(O)/C(=C\c1c(C(=O)O)[nH]c2cc(Cl)cc(Cl)c12)c1ccccc1	-3.5	i	12	5.4	-4	2.2	.
CCOC(=O)c1c(C)[nH]c(C)c1C(=O)COC(=O)/C=C/c1cccc(Cl)c1	3.6	.	4	0.5	-3	2.0	0.7
CCCC[C@@H]1CNC(=O)C(=O)N1CC(C)(C)C	-1.1	i	-5	-0.5	4	6.0	.
NNC(=O)c1cccc(COCC(F)(F)C(F)F)c1	8.9	i	-7	2.9	-2	0.6	0.65
O=C(O)CN1C(=O)c2ccc(Oc3ccc4c(c3)C(=O)N(CC(=O)O)C4=O)cc2C1=O	1.1	.	-6	4.7	-5	-0.9	0.68
CC(C)(C)OC(=O)N1CCN(C(=O)c2ncn(Cc3ccccc3)c2C(=O)N2CCN(C(=O)OC(C)(C)C)CC2)CC1	4.7	i	4	29*	-2	-0.9	0.67
COc1cc(OC)cc(C(=O)Nc2cc(C)nn2-c2ccccc2)c1	7.4	i	.	6.3	-3	-3.7	0.69
COc1cccc(NC(=O)CSc2nnnn2C2CCCC2)c1	-4.8	i	.	4.0	7	2.1	0.68
COc1cc(CN2CCNC(=O)C2CC(=O)O)cc(OC)c1 (stereo unspecified)	3.1	.	4	0.0	-2	-2.8	0.65
CCOC(=O)c1cnc2ccc(Cl)cc2c1N1CCN(C)CC1	0.1	.	-8	4.2	4	3.3	0.69
COc1ccc(NC(=O)CS(=O)c2ccc(F)cc2)cc1 (stereo unspecified)	-3.5	i	-7	0.8	-4	-1.4	0.67
O=C(O)CCC(=O)Nc1nc2ccc([N+](=O)[O-])cc2s1	-2.3	i	-18	13	-4	-2.2	0.7
Cc1csc(NC(=O)CSc2nc3ccccc3c(=O)[nH]2)n1	-1.9	.	99*	1.5	16	-3.9	0.74
O=C1Nc2ccccc2/C1=C\C(=O)c1ccccc1	0.3	i	5	2.7	20	-0.8	0.65
C=CC[C@@H](CC(=O)N[C@H](CO)Cc1ccccc1)C(=O)N[C@@H](COC(=O)[C@@H](CC=C)CC(=O)OC(C)(C)C)Cc1ccccc1	-126	i	-1	2.5	-4	-4.0	0.7
CN=C1N(C)C[C@@H]2[C@@H]3C(=O)N(C)C(=O)[C@@H]3[C@](C)(C(=O)OC)N12	.	.	.	2.9	-2	-2.1	0.7
c1ccc2c(CN3CCOCC3)c3ccccc3c(CN3CCOCC3)c2c1	-2.8	i	-8	3.7	4	32*	0.71
Cc1ccc(NC(=O)c2ncn(CC(=O)NCc3ccc4[nH]ccc4c3)n2)cc1C	.	i	.	-0.1	0	0.2	0.64
CC(C)OCCCNC(=O)COCC(=O)Nc1ccc(OCCc2ccccc2)cc1	-2.5	i	.	1.2	2	-0.4	0.63
CCN(C(=O)COC(=O)c1cc2c(s1)CCC(C)C2)c1c(N)n(Cc2ccccc2)c(=O)[nH]c1=O (stereo unspecified)	.	i	.	-0.1	2	1.3	0.67
CCN1C(=NCC(C)C)N[C@@H](c2cccc(C(F)(F)F)c2)C(C(=O)OC)=C1C	13*	i	5	.	3	-2.6	.
O=C(CCCCCn1c(=S)[nH]c2ccc(N3CCOCC3)cc2c1=O)NCc1cccc(Cl)c1	.	i	.	-96	-4	-0.7	0.72
The list goes on:
SMILES	LANA-H2A inh	FGF22 binding	ALR H2O2 inh	UCH37 DUB inh	Beta2AR agonist	HNF4A DNA FP	Ecoli growth
O=C(CN1CCOCC1)NCCNC(=O)CN1CCOCC1	1.8	.	-5	2.8	-2	-0.8	0.73
CC(C)(C)c1ccc(OCC(=O)N/N=C/c2ccc(N3CCOCC3)cc2)cc1	-5.9	.	-7	.	9	-1.7	.
CCc1ccc(-c2cc(C)no2)cc1S(=O)(=O)N1CCN(C(=O)c2ccco2)CC1	-1.3	i	-2	0.7	-4	-2.5	0.65
c1ccc(OCCN2CCNCC2)cc1	.	i	.	5.1	-2	1.6	0.71
CCCCC(=O)NC(c1ccc(C(C)C)cc1)c1ccc2cccnc2c1O (stereo unspecified)	-0.8	i	2	1.2	4	2.6	0.69
Cc1cc(C(=O)Cn2cc(C(F)(F)F)ccc2=O)c(C)n1-c1ccccc1	5.6	i	-2	1.5	-10	-2.8	0.65
COc1ccc(CNCc2ccc(C)cc2)c(OC)c1	-3.6	i	-8	-5.3	-2	3.8	0.65
COc1cc(C(=O)Nc2ccc3c(c2)OCCO3)ccc1-n1cnnn1	-0.5	.	-37	4.8	2	-1.2	0.69
O=C(O)CC1NC(=O)N(c2ccc(Cl)cc2)C1=O (stereo unspecified)	-3.0	.	-11	-2.0	12	-2.1	0.67
Cc1cccn2c(=O)c(/C=C(\C#N)S(=O)(=O)c3ccccc3)c(N3CCN(C)CC3)nc12	0.0	.	3	2.4	-1	-2.8	0.78
CCCNC(=O)C1CN(S(=O)(=O)c2ccc(Cl)s2)c2ccccc2O1 (stereo unspecified)	.	.	.	5.2	-2	0.6	0.72
COc1ccc(-c2cc(C(=O)N3CCN(c4ncccn4)CC3)c3ccccc3n2)cc1	1.5	i	-6	-123	22	-1.9	0.68
CN1C(=O)C(O)(C2OC(C)(C)CCC2=O)c2ccccc21 (stereo unspecified)	0.4	.	-27	1.8	-4	1.6	0.7
CN(CC(=O)NNC(=O)CCNS(=O)(=O)c1ccccc1)S(=O)(=O)c1ccc(Cl)cc1	-10	i	-2	4.2	-3	3.4	0.63
O=C(Nc1cccnc1)c1ccc(S(=O)(=O)c2ccc(Cl)cc2)cc1	0.1	.	-3	6.2	-4	-1.8	0.71
O=C(Nc1ccc(Br)cc1)c1ccc(CSC2=NCCS2)cc1	1.8	.	13	0.0	1	0.2	0.7
CCOc1ccc(NC(=O)COc2ccc(OC)cc2)cc1	-5.1	i	-23	1.7	-2	2.3	0.68
Nc1cccc2c1C(=O)N(Cc1nnc(-c3ccccc3Br)o1)C2=O	-4.3	i	41	.	-3	-9.9	.
COCCCNC(=O)C(=O)Nc1cc2c3c(c1)CCC(=O)N3CCC2	-0.1	i	-17	1.5	2	-1.3	0.71
CCOc1ccc(-n2ccc(=O)c(C(=O)Nc3ccc(S(=O)(=O)Nc4ncccn4)cc3)n2)cc1	-1.1	i	-5	-34	-1	-1.1	0.7
Cc1ccc(S(=O)(=O)NCC(C)NC(=O)CN2CCOCC2)cc1 (stereo unspecified)	3.5	i	.	5.2	13	2.6	0.7
COc1ccccc1N1CCN(C(=O)C(C)CS(=O)(=O)c2ccc3c(c2)NC(=O)CS3)CC1 (stereo unspecified)	1.6	i	38	7.4	2	0.2	0.7
O=C(c1ccccc1)N1CCOC(O)(c2ccccc2)C1c1ccccc1 (stereo unspecified)	.	i	.	1.0	11	1.0	0.69
CSc1c(CC(=O)Nc2ccccc2Cl)n(Cc2ccccc2)c2ccccc12	0.3	.	6	2.3	5	-0.8	0.77
O=C(NN1CCOCC1)c1ccc(Br)cc1	0.5	.	15	2.9	1	-1.1	0.66
OCc1nc2nc(Cl)c(Cl)nc2[nH]1	6.8	i	17	-17	4	-3.5	0.67

Shown with two lines to a compound: entries from further up
The line under a structure holds: LANA-H2A inh, FGF22 binding, ALR H2O2 inh, UCH37 DUB inh, Beta2AR agonist, HNF4A DNA FP, Ecoli growth
> CSc1c(CC(=O)Nc2ccccc2Cl)n(Cc2ccccc2)c2ccccc12
→ 0.3, ., 6, 2.3, 5, -0.8, 0.77
> CCc1ccc(-c2cc(C)no2)cc1S(=O)(=O)N1CCN(C(=O)c2ccco2)CC1
→ -1.3, i, -2, 0.7, -4, -2.5, 0.65

Assay outcomes from PubChem BioAssay.
